gsp antag = qHTS for Antagonists of gsp, the Etiologic Mutation Responsible for Fibrous Dysplasia/McCune-Albright Syndrome: qHTS. Potency, µM (top dose mostly 76.9 µM), inactives show at the top dose activity change, negative = inhibition, most hits filed as inhibitors. gsp-mutant cells, cAMP HTRF, 30 min; control for the full effect not named in the record. 340,000 compounds, 0.4% hits. AID 624288, 2012; active = falling curve of any shape with a large fitted effect; inconclusive = falling curve, mostly with a smaller effect; inactive = flat or rising curve; cell line not stated here;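 note: intracellular cAMP measured with PDE inhibitor Ro 20-1724 present during compound exposure; potency is the fitted concentration of half-maximal effect; % is set by controls: 0 for no effect and ±100 for the full control effect; nearly all actives have a fitted effect of over 65% in size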
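HTRF cAMP read-out (cAMP-d2 plus anti-cAMP antibody-K in lysis buffer, 30 min RT). Before lysis, cells are exposed to compounds with […] for 30 min at 37C in DPBS containing Ca/Mg, BSA and Tween 20.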
D2 agonist = Beta-Arrestin HTS for Positive Allosteric Modulators of the Human D2 Dopamine Receptor: Agonists. D(2) dopamine receptor (Homo sapiens), P14416. activation, % (test concentration not listed). 360,000 compounds, 0.084% hits. DiscoveRx PathHunter D2 beta-arrestin, luminescence, 90 min; 100% = 57 uM dopamine signal; in the data active = activation above about 40%; inconclusive = about 15% to 40%; inactive = below about 15%; note: compound concentration not given in the record; the text of the record calls up to 30% inactive
Target sequence (P14416 whole entry, looked up): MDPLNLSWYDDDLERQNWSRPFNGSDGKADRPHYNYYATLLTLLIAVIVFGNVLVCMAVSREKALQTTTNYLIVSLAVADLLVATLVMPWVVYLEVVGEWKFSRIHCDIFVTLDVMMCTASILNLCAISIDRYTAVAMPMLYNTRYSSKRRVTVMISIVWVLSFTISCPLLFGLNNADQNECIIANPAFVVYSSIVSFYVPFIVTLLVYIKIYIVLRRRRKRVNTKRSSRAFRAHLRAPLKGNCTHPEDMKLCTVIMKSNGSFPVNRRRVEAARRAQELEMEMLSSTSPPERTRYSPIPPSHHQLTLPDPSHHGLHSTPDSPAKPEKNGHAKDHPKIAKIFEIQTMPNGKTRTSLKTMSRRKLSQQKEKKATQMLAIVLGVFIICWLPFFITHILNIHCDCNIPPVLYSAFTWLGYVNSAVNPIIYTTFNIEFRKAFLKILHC
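Agonist mode: compounds alone added to overnight-plated D2 PathHunter cells for 90 min at 37 C, with 57 uM final dopamine (EC100) defining full response. Beta-arrestin recruitment detected by chemiluminescent reagent, read after 1 h at ambient temperature.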
D2 potentiator = Beta-Arrestin HTS for Positive Allosteric Modulators of the Human D2 Dopamine Receptor: Potentiators | D(2) dopamine receptor (Homo sapiens), P14416 | DiscoveRx D2 beta-arrestin cells, luminescence, 90 min; 100% = 57 uM dopamine signal | potentiation, % (no concentration beside the values) | 360,000 compounds, 0.23% hits | AID 624464, 2012; active = potentiation of 50% or more; inconclusive = 30% to 50%; inactive = 30% or less;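 note: compound concentration not given in the record; tested on top of an EC20 dose of dopamine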
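PathHunter D2 cells, attached overnight at 37 deg C, received compound in DMSO plus dopamine at EC20 (50 nM final) for 90 min at 37 deg C. Beta-arrestin recruitment was read as luminescence after 1 h with detection reagent at ambient temperature.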
CtBP-E1A blk = qHTS Assay for Inhibitors of the CtBP/E1A Interaction. activity change, % (test concentration not listed). AlphaScreen GST-E1A/His-CtBP binding, 1536-well; active compounds read low; control for the full effect not named in the record. 340,000 compounds, 0.49% hits. AID 651724, 2012; in the data active means activity change below about -65%; inconclusive means about -30% to -65%; inactive means above about -30%; note: % is set by controls: 0 for no effect and ±100 for the full control effect
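In 5 uL wells, 23 nL compound meets equimolar GST-E1A and His-CtBP (5X stock 125 nM each) for 2 h, 37 °C. Beads (5X, 50 ug/mL) then 1 h, 37 °C, dark.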
gsp ag = qHTS for Agonist of gsp, the Etiologic Mutation Responsible for Fibrous Dysplasia/McCune-Albright Syndrome: qHTS; gsp mutant cells, cAMP HTRF, 30 min; control for the full effect not named in the record; Potency, µM (top dose mostly 76.9 µM), without a hit: at the top dose activation (cAMP increase), actives largely listed as activators; 340,000 compounds, 0.13% hits; active = well fitted activation curve with a large enough effect; inconclusive = small, poorly fitted or top-dose-only effect, or another doubt; inactive = no such curve, though single readings can be large or run the other way; cell line not stated here;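 note: phosphodiesterase inhibitor Ro 20-1724 added with compounds to block cAMP breakdown; potency is the fitted concentration of half-maximal effect; nearly all actives have a fitted effect of over 60% in size; about a fifth of the inactives were tested at one dose only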
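Cells in DMEM/10% FBS with G418 were pretreated with compounds in DMSO plus […] (300 uM stock) for 30 min at 37C. cAMP was measured by HTRF (cAMP-d2 plus anti-cAMP antibody-K) after 30 min at room temperature.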
Six1-Eya2 blk = qHTS Assay for Inhibitors of the Six1/Eya2 Interaction. 360,000 compounds, 0.56% hits. AID 651725, 2012. Homeobox protein SIX1 (Homo sapiens) + Protein phosphatase EYA2 (Homo sapiens), …. AlphaScreen GST-Six1/His-Eya2 binding, biochemical; active compounds read low; control for the full effect not named in the record. activity change, % (concentration not given with the values); in the data active = activity change below about -65%; inconclusive = about -30% to -65%; inactive = above about -30%; note: % is set by controls: 0 for no effect and ±100 for the full control effect
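Homogeneous AlphaScreen proximity assay pairing GST-Six1 with His-tagged Eya2 (added as 5X mix: 250 nM and 500 nM) in 50 mM Tris pH 8.0, 300 mM NaCl, 1 mM TCEP. Glutathione donor and nickel acceptor beads; 1 h, 37 °C, dark.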
Starred values were filed as active, the others as inactive; ? = inconclusive; . = no result given; [ ] = dose if it differs, or a comment.

SMILES	gsp antag	D2 agonist	D2 potentiator	CtBP-E1A blk	gsp ag	Six1-Eya2 blk
CN(C)CCCNC(=O)C(=O)NCC1CCCO1 (stereo not given)	-9%	-1.9	-12	6	13%[15.4 µM]	0
COc1ccccc1C(=O)Nc1ccnn1C1CCN(CCCc2ccccc2)CC1	0%	1.8	-29	-5	-14%	-1
CCNc1c2c(nc3ccccc13)CC(C)(C)CC2=O	4%	-5.4	-10	-5	0%	5
COc1ccc(C(=O)NC2CCN(C(=S)Nc3ccccc3)CC2)cc1	7%	-0.9	-4	-24	9%	4
Cc1ccc(S(=O)(=O)/N=C(/Nc2nc(C)cc(C)n2)N2CCOCC2)cc1	-7%	1.6	-5	5	30%	4
CC(C)C(C)NC(=O)CN1C(=O)NC2(CCCc3ccccc32)C1=O (stereo not given)	9%	2.8	1	2	-15%	2
Nc1ncnc2c1ncn2[C@@H]1O[C@H](CNCc2ccccc2OCC(=O)N2CCCCC2)[C@@H](O)[C@H]1O	17%	-2.0	1	3	.	6
CCCSc1nc(SCC(=O)NCc2ccccc2)c2c3c(sc2n1)COC(C)(CC)C3 (stereo not given)	-19%	1.7	6	14	-33%[inhibitor]	3
Cn1c(=O)c2c(-c3ccccc3)n(-c3cc([N+](=O)[O-])ccc3O)cc2n(C)c1=O	.	-2.9	-1	5	-3%	-6
COc1cc(NC2c3ccccc3C(=O)N2Cc2ccccc2)cc(OC)c1OC (stereo not given)	-3%	-1.9	1	-7	2%[15.4 µM]	-14

Continued:
SMILES	gsp antag	D2 agonist	D2 potentiator	CtBP-E1A blk	gsp ag	Six1-Eya2 blk
O=C(O)C1=C(Nc2ccccc2)OCC1=O	-2%	0.0	6	-6	?	9
O=C(OCc1nnc(-c2ccccc2)o1)c1ccc2ccccc2n1	5%	-9.9	-12	-1	-3%	0
COc1ccc2c(c1)N(C)/C(=C1/SC(=S)N(NC(C)=O)C1=O)S2	-19%	-4.1	-1	-6	6%	-9
O=C(CSc1ccc2nnc(-c3ccc(F)cc3)n2n1)N1CCOCC1	5%	1.4	-10	-21	20µM*	10
COc1ccc(NS(=O)(=O)c2cccc(C(=O)NNC(=O)CNC(=O)c3ccccc3Cl)c2)cc1	11%	1.3	-3	0	-1%	-10
CC1CCCN(C(=O)CNC(=O)c2ccco2)C1 (stereo not given)	7%	-0.5	-24	5	10%	5
O=C(CN1C(=O)CC(c2ccco2)Sc2ccccc21)Nc1ccc2c(c1)OCCO2 (stereo not given)	?	-0.3	-10	-12	-13%	-13
Cn1cccc1C(=O)NCc1ccccn1	8%	-1.8	-18	0	-5%[15.4 µM]	-1
Cc1ccc2c(c1)c1c3n2CC(=C2C(=O)OC(C)(C)OC2=O)NC3CCC1 (stereo not given)	-7%	1.9	5	-22	-1%	-18
CCOc1ccc(S(=O)(=O)N2CCN(C(=O)CN3C(=O)NC(C)(C)C3=O)CC2)cc1	11%	-1.6	-1	4	-26%	0

Entries listed so far that bear a hit mark in gsp ag.
SMILES	gsp antag	D2 agonist	D2 potentiator	CtBP-E1A blk	gsp ag	Six1-Eya2 blk
O=C(CSc1ccc2nnc(-c3ccc(F)cc3)n2n1)N1CCOCC1	5%	1.4	-10	-21	20µM*	10

Later entries
SMILES	gsp antag	D2 agonist	D2 potentiator	CtBP-E1A blk	gsp ag	Six1-Eya2 blk
O=C(NCCCN1CCCC1=O)c1ccc2c(c1)NC(=O)c1ccccc1S2	0%	-1.4	-2	2	-4%	2
O=C(c1cccs1)N1CCN(S(=O)(=O)Cc2ccccc2)CC1	13%	-2.5	-2	-5	-18%	2
COC(=O)c1ccccc1N=Nc1c(C)n[nH]c1C	4%	-5.0	-16	.	30%	-3
O=C(c1ccccn1)c1ccc2ccccc2n1	12%	-0.5	-10	3	2%[15.4 µM]	1
CC(=O)Oc1c(C)c(C)c2c(c1C)CC[C@@](C)(CCC[C@H](C)CCC[C@H](C)CCCC(C)C)O2	15%	-5.6	-10	1	.	-6
Cc1ccn2c(CNCC3COCCO3)c(C(=O)N3CCCCCC3)nc2c1 (stereo not given)	8%	-4.6	-19	1	-11%	4
CCOC(=O)CC1=C(C(=O)OCC)C(c2ccncc2)C(C#N)=C(N)O1 (stereo not given)	-8%	-2.5	-8	0	14%	12
CC(C)(C)c1nc2ccccc2c2nnc(SCC(=O)Nc3nccs3)n12	13%	2.1	-11	-2	-26%	2
COC(=O)CCCn1nc(NC(=O)COc2ccc(F)cc2)cc1C	2%	-3.8	-7	5	21%[15.4 µM]	21
COc1ccc(C(=O)N/C(=C\c2ccccc2)C(=O)N2CCOCC2)cc1	-27%	9.1	10	1	-9%	6

The results go on:
SMILES	gsp antag	D2 agonist	D2 potentiator	CtBP-E1A blk	gsp ag	Six1-Eya2 blk
Cc1cc2cc(CNS(=O)(=O)c3ccc4ccccc4c3)ccc2n1C	2%	-4.5	-5	-12	-10%	-14
COc1cc(OC)nc(N/N=C(\c2ccccc2)c2ccncc2)n1	-5%	-3.6	-14	-1	-38%[inhibitor]	3
CN(Cc1ccccc1)C(=O)COC(=O)c1ccc(Br)o1	-14%	-3.3	-32	-4	-3%[15.4 µM]	2
COC(=O)C[C@H]1C[C@H]2c3cc(NC(=O)Nc4ccc(C(F)(F)F)cc4)ccc3O[C@H]2[C@@H](CO)O1	.	5.5	.	-18	22%	-5
CN(C)S(=O)(=O)c1ccc(N2CCCC2)c(C(=O)N2CCN(S(=O)(=O)c3cccc(F)c3)CC2)c1	-12%	-1.7	-15	3	-8%[15.4 µM]	7
CC(C)c1nn2c(N)c(/C=C3\C=Nc4ccccc43)c(=O)nc2s1	?	-3.6	-1	-1	-11%[15.4 µM]	1
COc1ccc(NC(=O)OCCN2CCN(Cc3ccccc3)CCC2=O)cc1	5%	1.7	-4	-5	12%	10
CCOC(=O)C1(CC2CCCCO2)CCN(Cc2c(C)cc(C)cc2-n2cccn2)CC1 (stereo not given)	10%	-4.5	-13	4	-10%	3
CCCCNC(=O)N(O)C1N(/N=C/c2ccco2)C(=S)SC1(C)C (stereo not given)	8%	-0.7	0	5	3%	4
Cc1c(C(=O)Nc2c3c(nn2C(C)(C)C)CS(=O)(=O)C3)cccc1[N+](=O)[O-]	6%	0.8	-1	2	-36%[inhibitor]	6

Continued.
SMILES	gsp antag	D2 agonist	D2 potentiator	CtBP-E1A blk	gsp ag	Six1-Eya2 blk
O=C(Nc1cc(C(F)(F)F)ccc1Cl)C(Sc1cccc[n+]1[O-])c1ccccc1 (stereo not given)	-11%	-0.9	-16	-4	-18%	-3
O=C(NCc1ccco1)c1c(Cl)cccc1Cl	.	-3.8	-10	-20	-33%[inhibitor]	12
Cc1ccc(S(=O)(=O)NC(=O)c2cc(C)n(CCCN3CCOCC3)c2C)cc1	-2%	-3.9	-9	1	-4%	1
CCCCn1c(N)c(N(CCC(C)C)C(=O)COC(=O)c2cccnc2SC)c(=O)[nH]c1=O	9%	-4.4	1	5	-2%[15.4 µM]	9
O=C(Cn1nnc2ccccc2c1=O)Nc1cc(C(F)(F)F)ccc1N1CCOCC1	-6%	-0.9	-1	3	?	5
O=C(CN1CCOCC1)Nc1ccc(Oc2ccc(NC(=O)CN3CCOCC3)cc2)cc1	3%	-0.8	-1	6	-2%	4
Cc1ccc(OCCNC(=O)c2ccc3ccccc3n2)cc1	-19%	-2.0	4	-12	24%	7
CCCCS(=O)(=O)C(=C1Nc2ccccc2N1)S(=O)(=O)CCCC	10%	-4.2	-11	11	18%	14
O=C(NC(=S)NC1CCCCC1)c1ccc(F)cc1	-10%	-7.1	-12	-3	?	-13
CCN(CC)S(=O)(=O)c1ccc(/C=C/C(=O)OCC(=O)c2c(N)n(C)c(=O)n(C)c2=O)cc1	-41%	-2.0	-3	13	27%[15.4 µM]	-13

Following part.
SMILES	gsp antag	D2 agonist	D2 potentiator	CtBP-E1A blk	gsp ag	Six1-Eya2 blk
CCOCCCNc1nc2c(C)cccn2c(=O)c1/C=C1\SC(=S)N(CC(C)C)C1=O	1%	-1.1	0	-11	16%	4
Cc1ccc([N+](=O)[O-])cc1NC(=O)C1CCN(S(C)(=O)=O)CC1	13%	-2.0	-13	5	?	8
CN(CC(=O)NCC1CCCO1)S(=O)(=O)c1cc(Cl)ccc1Cl (stereo not given)	8%	-3.6	-5	3	2%	3
O=S(=O)(c1ccccc1)N1CCCC1c1nc2ccccc2s1 (stereo not given)	-19%	-4.0	-21	4	-3%	-1
N/C(=N\OC(=O)Cc1cccs1)c1ccc(Br)cc1	-1%	-2.3	-6	8	?	20
CC(C)(CO)N1CCN(C(=S)Nc2ccccc2)CC1	-1%	-1.9	-4	.	19%	0
Nc1c(Cl)cc(C2=NCCn3nc4ccccc4c32)cc1Cl	12%	-5.0	-13	.	?	-3
CCOc1ccc(S(=O)(=O)N2CCN(C(=O)c3cc(S(=O)(=O)N4CCOCC4)ccc3C)CC2)cc1	2%	-2.9	-6	-11	-9%	1
Cc1ccc(Cn2nc(C)c(NC(=O)CSc3nc4c(c(C(F)(F)F)n3)CCc3ccccc3-4)c2C)cc1	1%	-2.7	15	-8	-38%	0
c1cc(-c2ccc(CN3CCOCC3)cc2)n2ccnc2c1	.	-4.4	-23	2	.	-2

The results go on:
SMILES	gsp antag	D2 agonist	D2 potentiator	CtBP-E1A blk	gsp ag	Six1-Eya2 blk
COc1ccc(CCNC(=O)COc2ccc(S(=O)(=O)N3CCOCC3)cc2)cc1	-5%	0.6	-1	5	2%	4
CCN(C(=O)c1cccnc1SC)C12CC3CC(CC(C3)C1)C2	0%	3.4	4	1	7%[15.4 µM]	-1
CCCn1cc(S(=O)(=O)c2ccccc2)c(=O)c2cc(OCC)ccc21	-12%	2.5	-8	-3	11%	5
Nc1nonc1C(=O)NCCc1ccccc1	11%	0.8	-2	0	21%	17
O=C(Cc1c(F)cccc1Cl)N1CCOCC1	6%	-0.4	3	3	-40%[inhibitor]	4
COc1ccc(C(=O)NC(=S)Nc2ccc3c4c(cccc24)CC3)cc1OC	-15%	1.4	19	3	-32%[inhibitor]	-6
Cc1[nH]c(=O)c(C(=O)c2cc(Cl)ccc2O)cc1C(=O)O	8%	-3.9	-1	-6	-19%	-26
COCCNCC(=O)N1CCCCCC1	7%	-2.6	-24	1	1%[15.4 µM]	2
Nc1nonc1-n1nnc(C(=O)N/N=C/c2ccc(Cl)cc2Cl)c1CN1CCOCC1	-14%	4.2	-1	1	-19%	-7
COc1ccc(NC(=O)Nc2ccc(OC)cc2)cc1	3%	1.5	9	11	-26%	4

From PubChem

Compounds were not picked by outcome, and some 1.4% of all compounds hit somewhere here.
